Screening data deposited in PubChem by Broad Institute.
A1 inh: inducers of caspase activity in MEF A1-2A-BIM cells, primary screen, A1 inhibitor project, cell-based, CaspaseGlo luminescence; caspase-Glo luminescence, 3 h; percent of clofoctol signal, DMSO as zero; caspase activation, % (concentration not given with the values); 0.51% of 21,000 active; AID 2241, 2010;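 active = most replicate scores above 10, or exactly half above 10 with mean activity above 10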;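 also: effector caspase 3 and 7 activity cleaving a DEVD luciferin substrate; 50 nL library stock added to about 30 µL; numbers are from one replicate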
BJeLR viability: BJeLR cell viability loss, primary screen, luminescence, CellTiterGlo ATP | viability loss activity score, % (test concentration not listed) | 0.64% of 30,000 active | AID 2275, 2010 | BJeLR fibroblasts viability, 48 h; HRASV12, hTERT and SV40 LT/ST transformed; in the data active = viability loss activity score above about 50%; about a fifth of its hits are not listed in these tables;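 also: higher score means fewer live cells and less ATP luminescence; stock transfer was 50 or 100 nL into about 30 µL; 0% = vehicle wells and 100% = a reference killing control; one replicate is shown; the record names a cut of 85%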
* hit, by the source's call; · = no result given. Only part of the results is shown; the hit share may differ from the screen's.

SMILES	A1 inh	BJeLR viability
COc1cc(C(F)(F)F)nc2ccc(C#CCOC(=O)c3ccccc3)cc12	0.2	-3.9
CCCCc1c(O)cc(-c2ccccc2)n(Cc2ccccc2)c1=O	0.1	-3.1
C[C@@H]1CN([C@@H](C)CO)C(=O)c2cc(NC(=O)Cc3cn(C)c4ccccc34)ccc2O[C@@H]1CN(C)C(=O)NC1CCCCC1	-0.8	-3.9
CC(C)(C)c1ccc(-c2noc(-c3ccc4c(c3)CCO4)n2)cc1	·	12
CCOc1ccc(C(=O)NC2CCCCC2)cc1	-0.8	1.9
CC(C)c1cc(NC(C)c2ccccc2)n2c(nc3ccccc32)c1C#N (stereo not given)	0.0	-4.4
C[C@H]1CN([C@@H](C)CO)C(=O)c2cccc(NC(=O)c3cnccn3)c2O[C@@H]1CN(C)Cc1ccc(Oc2ccccc2)cc1	·	-1.4
Cc1noc(C)c1S(=O)(=O)N(C)C[C@H]1Oc2c(NS(=O)(=O)c3cn(C)cn3)cccc2C(=O)N([C@H](C)CO)C[C@H]1C	·	1.3
C[C@@H]1CN([C@@H](C)CO)C(=O)c2cccc(NC(=O)C3CCOCC3)c2O[C@@H]1CN(C)C(=O)Nc1ccc(F)cc1	·	-1.0
CCOC(=O)C1(O)CC(C)=NN1C(=O)c1cccc(Cl)c1 (stereo not given)	0.9	-5.5
C[C@@H]1CN([C@@H](C)CO)C(=O)c2cc(NC(=O)Nc3ccc(F)cc3)ccc2O[C@H]1CN(C)S(=O)(=O)c1ccc(F)cc1	1.0	5.2
CCc1cc(=O)oc2cc(C)c3c(-c4ccccc4)coc3c12	-0.6	1.6
CC1OCN(c2ccc(OC(F)(F)F)cc2)Cn2c1nc1ccc(Cl)cc12 (stereo not given)	·	5.7
C[C@H]1CN([C@@H](C)CO)C(=O)c2cccc(NC(=O)NC3CCCCC3)c2O[C@H]1CN(C)CC1CCCCC1	·	1.2
O=C(CSc1nc2ccc(N3C(=O)c4ccccc4C3=O)cc2s1)c1ccccc1	0.4	-3.2
CC(C)NC(=O)Nc1ccc2c(c1)C(=O)N([C@@H](C)CO)C[C@@H](C)[C@H](CN(C)S(=O)(=O)c1ccc(Cl)cc1)O2	0.1	-1.6
COC(=O)C(=O)CC(=O)c1c(F)c(F)c(OC)c(F)c1F	-0.2	0.2
CCOC(=O)CN=C(c1ccccc1)c1ccccc1	-0.1	1.8
COC(=O)c1scc(C)c1NS(=O)(=O)c1ccc2c(c1)CCO2	·	-0.1
Cc1cccc(C)c1NC(=O)NC1CCc2ccccc21 (stereo not given)	1.3	2.2
CC1C(c2ccccc2)CC(C(=O)O)C1(C)C (stereo not given)	-0.2	-4.4
Cc1ccc(S(=O)(=O)N(C)C[C@H]2Oc3c(NC(=O)C4CCOCC4)cccc3C(=O)N([C@H](C)CO)C[C@H]2C)cc1	·	3.0
C[C@H]1CN([C@@H](C)CO)C(=O)c2cccc(NS(C)(=O)=O)c2O[C@H]1CN(C)Cc1ccc(Cl)c(Cl)c1	·	0.5
Cc1cc(C)n(C(=O)CNC(=O)c2cccs2)n1	0.0	-5.0
Cc1cc2cc(CNC(=O)COc3ccc4ccccc4c3)ccc2n1C	·	3.4

Part of the list above, with values under each structure:
Every second line gives: A1 inh, BJeLR viability
- Cc1cc(C)n(C(=O)CNC(=O)c2cccs2)n1
    0.0, -5.0
- Cc1cc2cc(CNC(=O)COc3ccc4ccccc4c3)ccc2n1C
    ·, 3.4

Six entries already listed, ordered by the value under A1 inh, lowest first:
mol	A1 inh
C[C@@H]1CN([C@@H](C)CO)C(=O)c2cc(NC(=O)Cc3cn(C)c4ccccc34)ccc2O[C@@H]1CN(C)C(=O)NC1CCCCC1	-0.8
CCc1cc(=O)oc2cc(C)c3c(-c4ccccc4)coc3c12	-0.6
Cc1cc(C)n(C(=O)CNC(=O)c2cccs2)n1	0.0
CCCCc1c(O)cc(-c2ccccc2)n(Cc2ccccc2)c1=O	0.1
O=C(CSc1nc2ccc(N3C(=O)c4ccccc4C3=O)cc2s1)c1ccccc1	0.4
CCOC(=O)C1(O)CC(C)=NN1C(=O)c1cccc(Cl)c1 (stereo not given)	0.9

(listing goes on)
SMILES	A1 inh	BJeLR viability
CC1Sc2cc(S(=O)(=O)NCc3ccccc3)ccc2NC1=O (stereo not given)	1.2	-1.1
CCCN(CCC)C(=O)Cn1c(SCc2cccc(Cl)c2)nc2ccncc21	0.9	4.5
C[C@H]1CN([C@@H](C)CO)C(=O)c2cc(NC(=O)CCCN(C)C)ccc2O[C@@H]1CN(C)Cc1ccc(Cl)c(Cl)c1	-0.7	-3.9
COc1ccc(S(=O)(=O)N(C)C[C@@H]2Oc3ccc(NC(=O)CCC(F)(F)F)cc3C(=O)N([C@H](C)CO)C[C@@H]2C)cc1	-1.0	-2.5
C[C@@H]1CN([C@H](C)CO)C(=O)c2cccc(NS(C)(=O)=O)c2O[C@H]1CN(C)CC1CC1	·	0.3
CCc1ccc(NC(=O)c2ccc(F)c(S(=O)(=O)NCC3COc4ccccc4O3)c2)cc1 (stereo not given)	-1.1	5.3
C/S(=N\S(=O)(=O)c1ccc(Cl)cc1)c1ccccc1 (stereo not given)	0.5	-5.2
O=C(CSCc1cccc2ccccc12)Nc1ccc(C(F)(F)F)cc1	0.0	-6.6
COc1ccc(C2NC(=O)NC(C)=C2C(=O)c2ccccc2)cc1OC (stereo not given)	1.2	-11
C[C@H]1CN([C@@H](C)CO)C(=O)c2cccc(NS(=O)(=O)c3ccccc3)c2O[C@@H]1CN(C)C(=O)Nc1ccc(C(F)(F)F)cc1	·	-3.2
COc1ccc(-c2cc(C(F)(F)F)nc(SCC(=O)N(C)Cc3cn(C)nc3C)n2)cc1OC	·	-7.7
COc1ccc(SCc2nsc(Sc3ccc(OC)cc3)n2)cc1	-0.2	0.5
COc1cc2oc(-c3ccccc3)cc(=O)c2c(O)c1OC	-1.0	-6.7
Cc1cccc(C)c1NC(=S)N1CCCC1=O	0.1	2.0
COc1ccc(NC(=O)Nc2cccc3c2O[C@H](CN(C)C(=O)NC2CCCCC2)[C@@H](C)CN([C@H](C)CO)C3=O)cc1	·	-0.1
CC1CC(=O)[C@]2(C)CC[C@]3(C)C(C(=O)C(O)C4[C@@]5(C)CC[C@H](O)C(C)(C(=O)O)C5CC[C@]43C)C2C1C (stereo not given in full)	3.0	106*
COc1ccc(S(=O)(=O)Nc2ccc3c(c2)C(=O)N([C@@H](C)CO)C[C@@H](C)[C@H](CN(C)C(=O)Nc2cccc4ccccc24)O3)cc1	1.0	0.2
O=S(=O)(Cc1ccc(F)cc1)Cc1noc(-c2ccno2)n1	-0.1	-3.6
CC(C)(C)OC(=O)Cn1ccc(=O)[nH]c1=O	-0.4	-2.1
CSc1ccccc1CNC(=O)NC12CC3CC(CC(C3)C1)C2	3.0	6.3
COc1ccc(-c2cc(=O)c3c(O)cc(O)cc3o2)cc1O	-3.7	-11
Cc1ccc(S(=O)(=O)CCN2CCC(C(F)(F)F)CC2)cc1	0.2	0.2
CCOc1ccccc1C(=O)NC1CCCCCC1	0.5	-6.7
Cc1ccc(N(CC(=O)N2CCCCCC2)S(=O)(=O)c2c(C)noc2C)cc1	·	-4.2
C[C@@H]1CN([C@H](C)CO)C(=O)c2cc(NC(=O)CCN3CCOCC3)ccc2O[C@H]1CN(C)C(=O)Nc1ccccc1	0.3	-4.0

Whole records, quoted from the list.
`CSc1ccccc1CNC(=O)NC12CC3CC(CC(C3)C1)C2` reads A1 inh = 3.0; BJeLR viability = 6.3
`COc1ccc(-c2cc(C(F)(F)F)nc(SCC(=O)N(C)Cc3cn(C)nc3C)n2)cc1OC` reads A1 inh = ·; BJeLR viability = -7.7

Later entries:
SMILES	A1 inh	BJeLR viability
C[C@@H]1CN([C@H](C)CO)C(=O)c2cccc(NC(=O)c3ccc(-c4nccs4)cc3)c2O[C@@H]1CN(C)C(=O)Nc1cccc2ccccc12	·	1.9
C[C@@H]1CN([C@H](C)CO)C(=O)c2cc(NC(=O)c3ccncc3)ccc2O[C@@H]1CN(C)S(=O)(=O)c1cccs1	-0.3	4.8
CCOC(=O)c1c(N)sc(C(=O)N2CCOCC2)c1C	-0.8	-5.2
COc1nc(NCCc2ccc(OC)c(OC)c2)nc(Nc2ccc(Cl)cc2)n1	-0.2	-5.0
CS(=O)(=O)c1cc2cc(Cl)ccc2oc1=O	-0.8	-7.9
Cc1noc(C)c1NC(=O)N(C)C[C@H]1Oc2c(NS(C)(=O)=O)cccc2C(=O)N([C@@H](C)CO)C[C@@H]1C	·	-2.0
CCCCc1cc(=O)oc2cc3oc4c(c3cc12)CCCC4	-0.4	-6.8
O=C(N/C(=C/c1ccccc1)C(=O)N1CCc2ccccc2C1)c1ccccc1	-0.7	4.3
Cc1noc(C)c1NC(=O)N(C)C[C@@H]1Oc2ccc(NS(=O)(=O)c3ccc(Cl)cc3)cc2C(=O)N([C@H](C)CO)C[C@H]1C	-0.5	2.1
C[C@@H]1CN([C@H](C)CO)C(=O)c2cc(NC(=O)c3ccncc3)ccc2O[C@H]1CN(C)C	-1.1	-7.4
C[C@@H]1CN([C@H](C)CO)C(=O)c2cccc(NC(=O)NC3CCCCC3)c2O[C@H]1CN(C)Cc1ccc(Oc2ccccc2)cc1	·	0.7
C=C1CC[C@H]2[C@@](C)(CCC[C@@]2(C)C(=O)O)[C@@H]1CCC(C)CCO (stereo not given in full)	0.7	1.6
C[C@@H]1CN([C@@H](C)CO)C(=O)c2cc(NC(=O)C3CCCCC3)ccc2O[C@H]1CN(C)C(=O)Nc1ccc(F)cc1	0.9	-1.2
CCn1c(C(=O)NC2CCCCCC2)cc2oc3ccccc3c21	-0.3	21
Cc1onc(-c2ccccc2Cl)c1NC(=O)Nc1cccc(C(F)(F)F)c1	0.4	-3.4
COc1ccc(S(=O)(=O)Nc2ccc3c(c2)C(=O)N([C@@H](C)CO)C[C@@H](C)[C@@H](CN(C)S(=O)(=O)c2ccccc2)O3)cc1	0.5	-1.5
COc1cc(OC)nc(/N=C/NO)n1	-0.4	-0.2
COc1ccc(NC(=O)N(C)C[C@@H]2Oc3c(NS(=O)(=O)c4cn(C)cn4)cccc3C(=O)N([C@@H](C)CO)C[C@@H]2C)cc1	·	4.0
C[C@@H]1CN([C@@H](C)CO)C(=O)c2cc(NC(=O)C3CC3)ccc2O[C@H]1CN(C)C(=O)NC1CCCCC1	-0.1	-5.7
C[C@@H]1CN([C@H](C)CO)C(=O)c2cccc(NC(=O)Nc3cccc4ccccc34)c2O[C@H]1CN(C)C(=O)Nc1ccc2c(c1)OCO2	·	-3.7
Cc1cc(=O)[nH]c(/N=C(\N)Nc2ccccc2)n1	-0.2	-0.9
CC(C)(C)C1CCc2nc(N)c3c(=O)oc4ccccc4c3c2C1 (stereo not given)	0.4	-1.1
O=C(C1CC1)N1CCN(c2ncccn2)CC1	0.2	-0.7
C[C@H]1CN([C@@H](C)CO)C(=O)c2cccc(NS(=O)(=O)c3ccc(F)cc3)c2O[C@H]1CN(C)C(=O)Nc1ccc2c(c1)OCO2	·	-3.8
C[C@H](CO)N1C[C@H](C)[C@@H](CN(C)S(C)(=O)=O)Oc2ccc(NS(C)(=O)=O)cc2C1=O	-0.5	3.3
(listing goes on)
SMILES	A1 inh	BJeLR viability
O=P1(N2CCN(c3ccc(Cl)cc3)CC2)COc2ccccc2OC1	0.0	2.9
C[C@@H]1CN([C@H](C)CO)C(=O)c2cccc(NC(=O)Nc3ccc(F)cc3)c2O[C@@H]1CN(C)Cc1ccc2c(c1)OCO2	·	-5.6
C[C@@H]1CN([C@@H](C)CO)C(=O)c2cc(NC(=O)Cc3cn(C)c4ccccc34)ccc2O[C@@H]1CN(C)Cc1ccc(C(=O)Nc2ccccc2N)cc1	·	10
CNC[C@H]1Oc2ccc(NC(=O)Nc3ccc(C(F)(F)F)cc3)cc2C(=O)N([C@@H](C)CO)C[C@@H]1C	0.4	2.0
C[C@H](CO)N1C[C@H](C)[C@H](CN(C)C(=O)Nc2ccc(F)cc2)Oc2ccc(NC(=O)C3CC3)cc2C1=O	0.3	5.8
C[C@@H]1CN([C@@H](C)CO)C(=O)c2cc(NS(C)(=O)=O)ccc2O[C@H]1CN(C)S(=O)(=O)c1ccc(Cl)cc1	-1.2	-4.1
Cc1cc(C)c(C(=O)c2ccccc2)cc1C(=O)c1ccccc1	1.4	-0.7
COC(=O)c1c(C)oc(C)c1S(=O)(=O)NCc1ccc(OC)cc1	·	0.1
COC(=O)CCC(=O)c1cc(C(C)(C)C)sc1C(C)(C)C	0.0	0.3
Cc1noc(C)c1NC(=O)N(C)C[C@@H]1Oc2ccc(NC(=O)C3CCCCC3)cc2C(=O)N([C@H](C)CO)C[C@@H]1C	-0.1	-3.8
COc1ccc(S(=O)(=O)N(C)C[C@@H]2Oc3ccc(NS(=O)(=O)c4cn(C)cn4)cc3C(=O)N([C@H](C)CO)C[C@H]2C)cc1	-0.4	-4.5
O=C(c1cc(-c2ccccc2)n[nH]1)N1CCN(c2cccc(C(F)(F)F)c2)CC1	·	0.7
Cc1ccc(N(c2ccc(C)cc2)c2cccnc2)cc1	0.7	0.7
Cc1ccccc1OCC(=O)Nc1ccc(NC(=O)c2cccs2)cc1	0.4	3.7
C[C@@H]1CN([C@@H](C)CO)C(=O)c2cccc(NC(=O)Nc3ccccc3)c2O[C@H]1CN(C)Cc1ccc2c(c1)OCO2	·	-2.6
N=C1/C(=C/c2ccc(SC3CCCCC3)o2)C(=O)N=C2SC=CN12	·	-0.5
Cc1ccc(C(C)C)c(OCC(=O)Nc2cc(-c3nc4ncccc4o3)ccc2C)c1	-0.8	-2.6
COc1ccc(CC(=O)N2N=C(C)CC2(O)C(F)(F)F)cc1 (stereo not given)	0.5	2.4
